# gsp antag: antagonists of gsp mutant (McCune-Albright syndrome); gsp-mutant cells, cAMP HTRF, 30 min; control for the full effect not named in the record; Potency, µM (top dose mostly 76.9 µM), for the others: at the highest dose activity change, negative = inhibition, hits mostly inhibitors; hit rate 0.4% among 340,000; active = falling curve of any shape with a large fitted effect; inconclusive = falling curve, mostly with a smaller effect; inactive = flat or rising curve; cell line not stated here;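 further: intracellular cAMP measured with PDE inhibitor Ro 20-1724 present during compound exposure; potency means the concentration at half of the fitted maximal effect; on the % scale 0 is the no-effect control and ±100 the full control effect; nearly all actives have a fitted effect of over 65% in size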
#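 Cells in G418 medium, seeded 16-24 h, 37C; buffer exchange to DPBS + 1 mM CaCl2, 0.5 mM MgCl2, 0.05% BSA; cpds in DMSO + […] (300 uM stock), 30 min 37C; HTRF cAMP detection.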
# CtBP-E1A blk: CtBP/E1A binding inhibition; AlphaScreen GST-E1A/His-CtBP binding, 1536-well; active compounds read low; control for the full effect not named in the record; AID 651724; activity change, % (test concentration not listed); hit rate 0.49% among 340,000; in the data active means activity change below about -65%; inconclusive means about -30% to -65%; inactive means above about -30%; further: on the % scale 0 is the no-effect control and ±100 the full control effect
#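 In 5 uL wells, 23 nL compound meets equimolar GST-E1A and His-CtBP (5X stock 125 nM each) for 2 h, 37 °C. Beads (5X, 50 ug/mL) then 1 h, 37 °C, dark.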
# gsp ag: agonists of gsp mutant (McCune-Albright syndrome) | gsp mutant cells, cAMP HTRF, 30 min; control for the full effect not named in the record | Potency, µM (top dose mostly 76.9 µM), without a hit: top-dose activation (cAMP increase), usual class: activators | hit rate 0.13% among 340,000; active = well fitted activation curve with a large enough effect; inconclusive = small, poorly fitted or top-dose-only effect, or another doubt; inactive = no such curve, though single readings can be large or run the other way; cell line not stated here;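 further: phosphodiesterase inhibitor Ro 20-1724 added with compounds to block cAMP breakdown; potency means the concentration at half of the fitted maximal effect; nearly all actives have a fitted effect of over 60% in size; about a fifth of the inactives were tested at one dose only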
#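 Cells stably selected in G418 were plated at 2000/well, grown 16-24 hr, then given compounds in DMSO with the PDE inhibitor […] (300 uM solution added) for 30 min at 37C; cAMP was read by HTRF.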
# D2 ag: agonists of human D2 dopamine receptor (beta-arrestin). P14416. DiscoveRx PathHunter D2 beta-arrestin, luminescence, 90 min; 100% = 57 uM dopamine signal. activation, % (concentration not given with the values). hit rate 0.084% among 360,000. AID 624465; in the data active = activation above about 40%; inconclusive = about 15% to 40%; inactive = below about 15%; further: compound concentration not given in the record; the text of the record calls up to 30% inactive
# Target sequence (P14416 whole entry, looked up): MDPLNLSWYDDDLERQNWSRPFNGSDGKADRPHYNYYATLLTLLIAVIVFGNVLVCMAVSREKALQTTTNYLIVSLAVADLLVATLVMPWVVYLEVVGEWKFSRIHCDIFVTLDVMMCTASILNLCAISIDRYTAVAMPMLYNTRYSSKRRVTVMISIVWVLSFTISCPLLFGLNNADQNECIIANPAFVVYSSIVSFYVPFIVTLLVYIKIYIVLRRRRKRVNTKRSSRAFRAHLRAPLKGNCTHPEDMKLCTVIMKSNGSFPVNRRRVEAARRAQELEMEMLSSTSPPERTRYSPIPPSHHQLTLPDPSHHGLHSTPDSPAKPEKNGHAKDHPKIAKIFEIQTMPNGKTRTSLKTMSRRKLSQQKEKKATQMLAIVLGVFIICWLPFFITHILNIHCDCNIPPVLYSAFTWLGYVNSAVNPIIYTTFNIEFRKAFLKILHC
#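 DiscoveRx PathHunter D2 beta-arrestin cells (2,100/well) attached overnight, then compound-stimulated 90 min at 37 C in HBSS/10 mM HEPES/0.1% Tween-20 buffer; beta-galactosidase complementation read by luminescence after 1 h at ambient temperature. Dopamine 57 uM final (EC100) as control.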
# Six1-Eya2 inh: Six1/Eya2 interaction inhibition. Q15475+O00167. AlphaScreen GST-Six1/His-Eya2 binding, biochemical; active compounds read low; control for the full effect not named in the record. activity change, % (no concentration beside the values). hit rate 0.56% among 360,000; in the data active = activity change below about -65%; inconclusive = about -30% to -65%; inactive = above about -30%; further: on the % scale 0 is the no-effect control and ±100 the full control effect
#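 Compounds are tested against tagged Six1 and Eya2 proteins bridged by glutathione donor and nickel acceptor beads; after a one-hour incubation at 37 °C without light, AlphaScreen emission is recorded.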
# D2 PAM: human D2 receptor positive allosteric modulation; potentiation, % (no concentration beside the values); hit rate 0.23% among 360,000; AID 624464; DiscoveRx D2 beta-arrestin cells, luminescence, 90 min; 100% = 57 uM dopamine signal; active = potentiation of 50% or more; inconclusive = 30% to 50%; inactive = 30% or less;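 further: compound concentration not given in the record; tested on top of an EC20 dose of dopamine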
#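 PathHunter beta-arrestin assay in DiscoveRx D2 cells. Compounds were added with an EC20 of dopamine (50 nM final) for 90 min at 37 deg C. Luminescence was read 1 h after detection reagent, with 57 uM dopamine as the EC100 control.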
# * = called active by the depositor; ? = inconclusive; nt = no result given; [ ] = remark or other dose.
SMILES,gsp antag,CtBP-E1A blk,gsp ag,D2 ag,Six1-Eya2 inh,D2 PAM
O=C1NC(=O)N2CCSC2(Cc2ccccc2)N1 (stereo not drawn),-1%,5,10%,-3.9,-8,-14
CCCCCCOc1ccc(N2C(=O)CC(N3CCN(CCN=CC4C(=O)CC(C)(C)CC4=O)CC3)C2=O)cc1 (stereo not drawn),-8%,nt,-1%[15.4 µM],6.0,15,-3
CC(=O)c1c(C)[nH]c(C(=O)CN(C)CC(=O)Nc2ccccc2Cl)c1C,?,-1,15%,3.4,0,-9
COc1cc(/C=C2\SC(=S)N(Nc3ncc(C(F)(F)F)cc3Cl)C2=O)ccc1O,-12%,?,0%[15.4 µM],-14,?,-36
O=S(=O)(Cc1ccccc1)Nc1ccccc1,8%,4,-4%,-0.3,0,2
CN1C2C=C3C(C#N)=C(N)C(C#N)(C#N)[C@H](c4c(F)cccc4F)[C@H]3C1CC2 (stereo partly drawn),-17%,8,-11%,0.3,-22,2
CCOc1ccc(NC(=S)Nc2cc(OC)c(Cl)cc2OC)cc1,-15%,-1,-7%,-5.6,-24,-25
O=C(c1noc2c1CCc1ccccc1-2)N1CCCc2ccccc21,?,6,-37%,-2.7,1,-1
CC1=C(C(=O)N2CCOCC2)C(c2ccc(OC(F)F)cc2)NC(=S)N1c1ccccc1 (stereo not drawn),16%,11,2%[15.4 µM],-1.7,6,-3
CNC(=O)NC(=O)CSc1nnc(-c2ccco2)n1-c1ccccc1,5%,8,-1%,-4.8,0,-1
O=C(Nc1ccc(-c2nc3ccccc3o2)c(O)c1)c1cc(-n2cnnc2)ccc1Cl,-4%,-4,4%,-0.2,-9,-7
Cc1nc2scc(-c3cccs3)c2c(=O)[nH]1,9%,-7,-31%[inhibitor],-2.8,-2,-6
NC(=O)c1[nH]cnc1N=NN(CCO)Cc1ccccc1,nt,-3,?,-8.8,-10,-10
CC[C@]12c3[nH]c4ccc(OC)cc4c3CCN1C(=O)C(CC(=O)NC(C)(C)C)C[C@@H]2C(=O)N1CCN(C(=O)c2ccco2)CC1 (stereo partly drawn),-2%,3,nt,0.2,1,nt
COc1cccc(/C=C/C(=O)OCC(=O)N2CCCc3ccccc32)c1,-5%,-8,-13%,0.3,-1,10
COc1cc(CN(C2CC2)S(=O)(=O)c2ccccc2Br)cc(OC)c1,-3%,-17,nt,2.9,14,12
COCCN1Cc2cccc(C(=O)Nc3cccc(-c4nc5ccccc5[nH]4)c3)c2C1=O,1%,-7,10%[15.4 µM],6.7,-2,15
Cc1ccc(NC(=O)C2CCCN(C(=O)NCc3ccccc3)C2)c(C)c1 (stereo not drawn),5%,-1,5%,4.9,1,-5
C/C(=N\NC(=O)C1CCCN(S(=O)(=O)c2ccccc2)C1)c1ccccn1 (stereo not drawn),-6%,-90*,1%,-4.3,-86*,-28
Cc1cc(C2C(=O)CC(=O)CC2c2ccccc2)on1 (stereo not drawn),3%,5,-4%,0.2,0,27
COc1ccc(CCn2c(C)nc3c(c(=O)c4ccccc4n3C)c2=O)cc1,-3%,?,0%,1.5,?,-17
O=C(N/N=C/c1ccc(Br)cc1)c1ccc(NC(=O)c2ccccc2)cc1,6%,0,?,-2.0,1,-7
O=S(=O)(c1ccccc1)N1CC=C(c2ccccc2)CC1,-2%,-4,?,0.1,8,-5
COc1ccc(C(=O)NCc2cc3ccccc3n2C)cc1,12%,0,10%[15.4 µM],-1.6,0,-10
C/C(Cn1nc([N+](=O)[O-])cc1C)=N\NC(=O)c1cccc(Br)c1,7%[15.4 µM],0,-4%,-1.6,3,-22

# Further results follow.
SMILES,gsp antag,CtBP-E1A blk,gsp ag,D2 ag,Six1-Eya2 inh,D2 PAM
COc1ccc2[nH]c3c(c2c1)CCN1C(=O)C(CC(=O)NCc2ccco2)C[C@H](C(=O)N2CCCCC2)[C@@]31CCc1ccccc1 (stereo partly drawn),-20%,-9,nt,-0.9,-4,-1
C[C@H](O)[C@@H]1CN2CCc3c([nH]c4ccccc34)[C@@H]2C[C@@H]1N(C)C(=O)Nc1ccc(Br)cc1,nt,0,nt,11,-8,-6
COc1cccc2cc(C(=O)NNC(=O)c3ccc(Br)cc3)c(=O)oc12,nt,0,4%[15.4 µM],0.8,-2,3
COc1ccc(C2=NNC(c3cccs3)=Nc3ccc(OC)cc32)cc1,-6%,-19,-1%,-3.6,-27,-9
Cc1ccc(C2(C)NC(=O)N(CCOc3ccccc3)C2=O)cc1 (stereo not drawn),0%,5,-8%,-4.1,-7,9
CCOC(=O)c1sc2ccc(S(=O)(=O)N3CCOCC3)cc2c1N,5%,4,0%,3.0,-4,-5
CCC1Nc2ncnc(N3CCOCC3)c2N(Cc2ccc(OC)cc2)C1=O (stereo not drawn),3%,2,9%,-4.3,0,-9
CCc1cccc(C)c1N(C(=O)Cn1c(=O)[nH]c2ccccc21)C(C)COC (stereo not drawn),2%[15.4 µM],7,?,-0.7,5,-12
CCOC(=O)C1CCN(CC(=O)Nc2c(C(=O)OC)[nH]c3cccc(C)c23)CC1,0%[15.4 µM],-2,-39%[inhibitor],5.7,0,-17
CCN(C(=O)COC(=O)c1cc(-c2ccccc2)nn1-c1ccccc1)C1CCS(=O)(=O)C1 (stereo not drawn),-8%,-1,3%,7.5,-3,-9
COCc1ccc(-c2c(-c3ccc(OC)cc3)oc(=O)c3cc(OC)c(OC)cc23)cc1,-37%,-4,3%,2.9,0,-2
COc1cc(OC)c(C2=NOC(C(=O)Nc3cc(C)nn3-c3ccccc3)C2)cc1Cl (stereo not drawn),-6%,-30,6%,2.9,-16,6
CSc1nnc(-c2ccccc2)n1N,1%,-2,31%,-0.6,7,3
CC(C)n1cc(CN2CCCC(C(=O)Nc3ccccc3Oc3cccnc3)C2)cn1 (stereo not drawn),3%,5,1%[15.4 µM],-5.0,9,3
CCOC(=O)N1CCC(N2Cc3cccc(C(=O)N4CCN(c5cccc(C)c5C)CC4)c3C2=O)CC1,-15%,1,43%,11,-2,-2
CCCCOC(=O)Nc1ccc(S(=O)(=O)Nc2ccc([N+](=O)[O-])cc2)cc1,-9%,-8,-14%,-1.5,-11,-24
CCc1cccc(C)c1NC(=O)C1CC(=O)N(C2CCCC2)C1 (stereo not drawn),14%,1,-22%,-3.9,-2,-2
COc1cc(C2N(c3ccccc3)CCN2c2ccccc2)cc(OC)c1OC,6%,-13,-11%,-0.2,-10,11
CCCc1nnc(NC(=O)CS(=O)(=O)c2ccccc2)s1,-5%,1,-2%,-5.0,10,-4
c1ccc(NC2=NCCN2CCC2CCCCC2)cc1,12%,2,?,-1.5,0,-23
O=C(CCc1ccc(S(=O)(=O)NC2CCCCC2)cc1)NCc1ccc(Cl)cc1,-2%,5,-6%,0.9,11,-3
COc1ccc(CN2CN=C(Nc3nc4ccccc4s3)NC2)cc1,4%,3,-14%,-0.1,0,0
CC(C)(CO)N=C1NS(=O)(=O)c2cc([N+](=O)[O-])ccc21,4%,0,15%[15.4 µM],?,12,90*
C(=C\c1nc(N2CCCCCC2)c2ccccc2n1)/c1ccccc1,?,-1,-9%,-0.5,13,-24
CCCS(=O)(=O)N1CCC(C(=O)NCCCN(C)Cc2ccccc2)CC1,1%,6,6%,2.2,7,30

# (continued)
SMILES,gsp antag,CtBP-E1A blk,gsp ag,D2 ag,Six1-Eya2 inh,D2 PAM
Cc1ccc(-c2csc3nc4cc(C(=O)NC5CCC(O)CC5)ccc4c(=O)n23)cc1 (stereo not drawn),-12%,-16,29%,-12,8,-17
C[C@H]1CN([C@@H](C)CO)C(=O)CCCn2cc(nn2)CO[C@@H]1CN(C)C(=O)Nc1ccc(F)cc1,nt,-25,5%,-1.0,6,3
CC(C)C[C@]1(c2ccccc2)ON(c2ccccc2C(F)(F)F)C1=O,-3%,-17,5%,-3.2,21,-6
CN1CCC(=O)N([C@H](CN=[N+]=[N-])c2ccccc2)CC1,-5%,8,23%,-2.6,3,-9
CCc1nnc(NC(=O)CSc2nnc(Cc3ccccc3)n2-c2ccc(OC)cc2)s1,0%,3,?,0.0,3,-11
C[C@@H]1CN([C@@H](C)CO)C(=O)CCCn2cc(nn2)CO[C@H]1CN(C)C(=O)c1ccc2ccn(C)c2c1,nt,2,16%,-1.5,-6,3
COc1cccc(NC(=O)CN2CCN(S(=O)(=O)c3ccc(F)cc3)CC2)c1,-5%,1,21%,-1.1,2,-14
COc1ccc(CCNC(=O)c2ccc(OCC(=O)N3CCOCC3)c(OC)c2)cc1OC,9%,-2,9%,-0.1,2,-2
COc1ccc(OCC(=O)N(C)CC2COc3ccccc3O2)cc1 (stereo not drawn),-3%,-23,-2%,2.4,4,-15
CCOC(=O)C1C(=O)OC(C)(C)C1C(C)C(=O)c1ccc(OC)cc1 (stereo not drawn),-1%,3,-31%[inhibitor],-1.6,2,-12
O=C(CCCn1c(=O)c2sccc2n(CC(=O)NCC2CCCO2)c1=O)NCc1ccco1 (stereo not drawn),11%,-15,2%[15.4 µM],-2.9,-4,-6
C=CCN(CC=C)Cc1cc(=O)oc2cc(OC)c(Cl)cc12,nt,19,nt,-4.0,18,-6
Cc1cc(C)n(-c2nc3c(c(=O)n(C)c(=O)n3C)n2CCO)n1,13%,-5,-1%[15.4 µM],6.3,10,-1
CCN1C(=O)[C@@H]2[C@H](C1=O)[C@@H]1C(=O)Nc3ccccc3C(=O)N1[C@@H]2c1cccc(OC)c1,7%,5,nt,-1.9,4,-36
COc1ccc(OC)c2c(C)cc(N3CCCCCC3)nc12,-8%,-9,-22%,-3.7,-12,-7
COc1ccc(C)cc1NC(=O)NNC(=O)C(C)Oc1ccc([N+](=O)[O-])cc1 (stereo not drawn),-7%,-3,-8%,-4.0,0,-18
CCSc1nnc(-c2cc(Br)ccc2NC(C)=O)c(=O)[nH]1,-1%,7,4%[15.4 µM],-0.8,-2,-7
Cc1cc(C)n2nc(C(=O)OCC(=O)N(C)Cc3ccccc3)nc2n1,14%,4,-6%[15.4 µM],0.0,-3,-2
CSc1nc2c(cc1C#N)C(=O)CC(C)(C)C2,-3%,18,9%[15.4 µM],0.5,7,-1
